Ecoli growth = inhibitors of Escherichia coli growth | AID 1053175 | hit rate 0.21% among 330,000 | OD600 absorbance (test concentration not listed) | OD600, 23 h; hits give low values;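 active = OD600 absorbance below the run mean of sample wells minus 3.6 SD, in any replicate, cut at about 0.56 in these data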;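 note: stock transfer was 300 nL into about 60 µL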
ALR inh = human ALR oxidase inhibition via reduced H2O2 | hit rate 3.8% among 290,000 | purified ALR, DTT oxidation, H2O2 HRP-luminol luminescence | P55789 | AID 485317 | inhibition, % (no concentration beside the values);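 active = mean and each replicate at 75% or more; inconclusive = only one of the two met; inactive = neither met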;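 note: stock transfer was 7.5 nL into about 7.5 µL; 0% = neutral wells and 100% = wells with inactivated enzyme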
AF4-AF9 inh = MLL-AF4/AF9 protein interaction inhibition. P42568. AlphaScreen, biotin-AF4 peptide binding to FLAG-AF9. inhibition, % at 10 µM. hit rate 0.47% among 350,000;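 active = every replicate reaching a set inhibition limit, whatever the replicate mean, cut at about 25% in these data; inconclusive = mean inhibition reaches that limit but some replicates miss it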;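 note: 0% = plate neutral control median and 100% = total signal loss; the record names both 10 and 1 µM as test concentration; the first replicate is given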
Target sequence (P42568 whole entry, looked up): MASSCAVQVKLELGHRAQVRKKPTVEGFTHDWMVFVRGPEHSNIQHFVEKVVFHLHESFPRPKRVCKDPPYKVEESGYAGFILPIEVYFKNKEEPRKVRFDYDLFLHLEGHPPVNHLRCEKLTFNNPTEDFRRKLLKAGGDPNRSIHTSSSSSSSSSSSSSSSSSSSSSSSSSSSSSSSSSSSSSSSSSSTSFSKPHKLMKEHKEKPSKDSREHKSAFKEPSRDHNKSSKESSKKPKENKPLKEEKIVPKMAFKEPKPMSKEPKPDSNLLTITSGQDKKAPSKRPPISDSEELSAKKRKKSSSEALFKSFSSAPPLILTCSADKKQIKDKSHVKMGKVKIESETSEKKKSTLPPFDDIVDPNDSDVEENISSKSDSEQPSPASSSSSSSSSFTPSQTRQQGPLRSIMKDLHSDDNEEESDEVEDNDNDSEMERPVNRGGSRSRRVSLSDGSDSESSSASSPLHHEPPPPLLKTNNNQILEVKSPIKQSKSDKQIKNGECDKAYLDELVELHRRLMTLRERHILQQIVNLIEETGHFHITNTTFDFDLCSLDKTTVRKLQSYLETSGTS
HNF4A DNA FP = change in binding of human HNF4 alpha to DNA; P41235; HNF4a-FITC DNA binding, fluorescence polarization, 1 h; activity change, % at 10 µM; hit rate 0.3% among 360,000; in the data active = activity change above about 30%, passing the limit was not always enough;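 note: controls were the assay level and a saturating level of protein; the project sought stronger binding though the title names inhibitors; some compounds called inactive have numbers as strong as hits; positive values seem to mean higher polarization but the record does not say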
Target sequence (P41235 whole entry, looked up): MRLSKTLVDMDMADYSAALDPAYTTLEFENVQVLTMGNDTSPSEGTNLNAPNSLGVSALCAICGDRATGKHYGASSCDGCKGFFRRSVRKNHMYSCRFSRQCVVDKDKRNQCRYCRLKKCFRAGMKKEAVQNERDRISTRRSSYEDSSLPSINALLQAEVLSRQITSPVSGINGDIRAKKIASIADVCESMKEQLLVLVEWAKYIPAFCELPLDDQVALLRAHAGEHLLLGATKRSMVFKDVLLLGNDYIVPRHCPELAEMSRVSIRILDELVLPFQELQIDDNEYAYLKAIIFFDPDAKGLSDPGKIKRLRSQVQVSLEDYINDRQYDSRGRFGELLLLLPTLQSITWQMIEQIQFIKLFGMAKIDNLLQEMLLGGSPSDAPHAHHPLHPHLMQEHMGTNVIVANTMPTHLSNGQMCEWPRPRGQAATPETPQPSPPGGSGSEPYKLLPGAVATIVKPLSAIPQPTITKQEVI
rRNA inh HTS = inhibits bacterial ribosomal RNA function over humanized ribosomes; E. coli WT GFP vs humanized-ribosome RFP mutants, fluorescence, 24 h; hits give low values; DMSO median 0, no signal -100; GFP signal change (wild-type ribosome), % (test concentration not listed); hit rate 1.6% among 350,000; AID 720706;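 active = significant combined selectivity score with lowered wild-type GFP, culture density cut under 30%, mutant RFP and density less affected; inactive = any of these conditions unmet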; note: one replicate is shown; some compounds called inactive have numbers as strong as hits
FGF22 binding = FGF22 (human) thermal shift binding. hit rate 1.5% among 340,000. AID 651658. calls only at 9.99 µM. Q9HCT0. recombinant FGF22 thermal shift, SYPRO orange fluorescence; percent of sucrose octasulfate shift, DMSO zero;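 active = melting point raised past a set limit in the mean and every replicate; inconclusive = no clear call; three in four hits are not shown here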
Vif TR-FRET = HIV-1 Vif–A3G interaction blockers – biochemical, TR-FRET, GST-Vif 1-94, biotin-A3G peptide, dose response retest, primary screen (AID 1117319). TR-FRET GST-Vif / biotin-A3G peptide binding; higher % means a stronger effect; test concentration not given here; strong numbers were not always called active. inhibition, %, or IC50 in µM where a hit was titrated. hit rate 0.57% among 260,000;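 active = above the screen mean plus three standard deviations and confirmed in dose response; inconclusive = results disagree or hit not tested in dose response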;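 note: Vif residues 1-94 fused to GST binding biotinylated APOBEC3G peptide 110-148; 0% = full assay without inhibitor and 100% = GST in place of GST-Vif; retest series ran down from 100 µM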
rRNA inh HTS OD600 = recorded beside rRNA inh HTS, whose call it bears; OD600 change, %; measured here: OD600 growth;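 optical density of the mix in the first replicate; 0 = DMSO median and -100 = no signal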
rRNA inh HTS RFP = recorded beside rRNA inh HTS, whose call it bears; RFP signal change, %; measured here: RFP humanized mutant strains;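 first replicate; 0 = DMSO median and -100 = no signal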
Numbers without * were called inactive; i = inactive; ? = inconclusive; nt = not tested or not shown; & = joins results of further samples. This is a subset, so the mix of outcomes need not match the whole.

SMILES,Ecoli growth,ALR inh,AF4-AF9 inh,HNF4A DNA FP,rRNA inh HTS,rRNA inh HTS OD600,rRNA inh HTS RFP,FGF22 binding,Vif TR-FRET
O=C1CC(c2ccccc2)Cc2nc(NC3CC3)ncc21 (centres undefined),0.68,-4,-7.4,3.2,4,-6,-0.2,nt,-1%
COC(=O)c1cc(NC2c3ncccc3C(=O)N2Cc2ccccc2)cc(C(=O)OC)c1 (centres undefined),0.67,-1,-19,4.7,17,10,-7.4,i,0%
C[C@H](CO)N1C[C@H](C)[C@@H](CN(C)C(=O)Nc2ccc(-c3cccs3)cc2)OCc2cn(nn2)CCCC1=O,nt,nt,-0.9&3.9,nt,-3&7,-4&4,-1.6&5.9,i,nt
CC(C)N1C(=O)S/C(=C/c2ccc3c(c2)n(C)c(=O)n3C)C1=O,0.72,nt,nt,3.7,nt,nt,nt,nt,6%
CCOc1ccc(NC(=S)NCCCN2CCN(c3ccc(OC)cc3)CC2)cc1,0.69,73,nt,4.5,7,9,-3.5,i,-16%
Cc1cccc(NC(=O)COC(=O)c2cccs2)c1C,0.69,nt,-3.0,-1.2,2,-5,-4.1,i,3%
COCCNC(=O)C(C#N)c1nc2ccccc2nc1N1CCCCCC1 (centres undefined),0.75,?,nt,1.7,nt,nt,nt,nt,?
COc1cccc(-c2ccc3c(c2)O[C@H](CN(C)C(=O)C2CCOCC2)[C@@H](C)CN([C@@H](C)CO)S3(=O)=O)c1,nt,nt,4.4,nt,-3,0,-1.1,i,nt
COc1ccc(-c2cc3c(=O)n(CC(=O)Nc4ccc(C(C)=O)cc4)ncn3n2)cc1,0.72,-6,0.3,1.5,18,21,-2.4,i,nt
Cc1nnc(NC(=O)c2ccc(Br)o2)s1,0.66,-11,4.0,-3.3,10,15,1.1,i,-5%
COC(=O)c1ccc(CN2CCCC(C(=O)c3ccccc3OC)C2)cc1 (centres undefined),0.66,-4,-0.5,-2.8,-6,-2,-1.7,i,nt
COc1ccccc1NC(=O)c1cc2c(cc1Cl)N1CCCCCC1=NS2(=O)=O,0.68,-1,-9.3,0.8,7,4,6.3,nt,3%
CCCCn1c(N)c(N(CCC(C)C)C(=O)c2ccc(N3CCCC3=O)cc2)c(=O)[nH]c1=O,0.68,-15,-3.5,3.2,13,7,-1.7,i,2%
Cn1c(=O)c2c(nc(N/N=C/c3ccc(OC(=O)c4ccco4)cc3)n2Cc2ccccc2)n(C)c1=O,nt,-4,nt,-2.4,nt,nt,nt,nt,10%
CCN(C(=O)CSc1nnc(-c2ccncc2)o1)c1ccccc1,0.67,-3,-1.0,-2.1,0,-2,1.1,i,25%
O=C(NCC1CC1)c1cccs1,nt,nt,-2.4,2.5,11,20,1.1,i,nt
O=C(NNC(=O)c1ccccc1F)c1cccc(Cl)c1,0.75,0,nt,2.2,nt,nt,nt,nt,2%
COCC(=O)N1[C@@H]2CN(C)c3ccccc3[C@@H]2[C@@H]1CO,nt,nt,-0.3,nt,0,9,0.5,i,nt
CCCOc1ccc(N2C(=O)CC(N(CCOC34CC5CC(CC(C5)C3)C4)C(C)=O)C2=O)cc1 (centres undefined),0.72,-2,2.7,0.1,10,-1,2.6,i,nt
CCN(CC)CCCNC(=O)CNC(=O)c1nn(-c2ccc(OC)c(OC)c2)c(=O)c2ccccc12,0.66,nt,1.2,-3.7,19,13,1.5,i,-6%
N#C[C@H]1[C@H](c2ccccc2C2=CCCC2)[C@@H](CO)N1C(=O)C1CCOCC1,nt,nt,-6.5,nt,-1,6,2.1,i,nt
COc1cccc(NC(=O)c2cnc(SC)nc2)c1,0.69,-11,-1.5,0.3,1,-3,-4.8,i,nt
COc1ccccc1CN1C2CCCC1CC(NC(=O)/C=C/c1ccccc1)C2 (centres undefined),nt,2,6.7,0.5,3,0,-7.1,i,30%
COCC(=O)N1C[C@@H](C)[C@H](OC)CN(C)C(=O)c2cc(NC(=O)c3ccc(F)cc3)ccc2OC[C@H]1C,nt,nt,-3.0,nt,-1,-5,-0.7,i,nt
COC(=O)c1ccccc1NC(=O)CNCCc1ccc(OC)c(OC)c1,0.67,-1,-2.5,-0.8,0,-6,0.3,i,nt
CN1CCN(c2nc3cc(C(F)(F)F)ccc3n3cccc23)CC1,0.64,-8,14,-3.2,nt,nt,nt,i,nt
CC(=O)Nc1ccc(NC(=O)C(C)OC(=O)CCc2c[nH]c3ccccc23)cc1 (centres undefined),0.67,3,0.1,1.1,4,-2,1.2,i,74%
C[C@H]1CN([C@@H](C)CO)C(=O)c2cccc(NC(=O)c3ccncc3)c2O[C@@H]1CN(C)CC1CCCCC1,nt,nt,11,nt,-8,-4,2.1,i,nt
CN(C)S(=O)(=O)c1ccc(-c2csc(N/N=C/c3ccc(O)cc3)n2)cc1,nt,nt,nt,0.6,-3,14,3.7,i,1%
Cc1cc(C)cc(OCC(=O)N/N=C/c2ccncc2)c1,nt,2,nt,0.5,nt,nt,nt,nt,-7%
Cc1ccc2c(CN3CCC(C)CC3)cc(=O)oc2c1C,0.67,0,-2.9,2.6,-13,-10,4.5,i,2%
COc1ccc(CC(=O)NNC(=O)COc2ccc(C)cc2)cc1S(=O)(=O)N1CCOCC1,0.64,2,-29,-1.1,9,9,2.3,i,-3%
Cc1cc(Br)cn2c(Cc3ccccc3)c(-c3ccc(F)cc3)nc12,nt,nt,-6.8,2.0,-20,-15,6.9,i,nt
Cc1noc(C)c1NC(=O)Nc1ccc2c(c1)C(=O)N([C@@H](C)CO)C[C@H](C)[C@@H](CN(C)C(=O)CCCN(C)C)OCCCC[C@H](C)O2,nt,nt,-1.6,nt,2,5,0.5,i,nt
O=C1NC[C@@H](CCCCN2CCN(CCc3ccc(O)cc3)C(=O)C2=O)N(CCc2ccc(O)cc2)C1=O,nt,nt,-3.2,2.8,6,0,-1.6,i,nt
O=C(C[C@@H]1CC[C@@H](NS(=O)(=O)c2ccccc2F)[C@H](CO)O1)NCCCN1CCOCC1,nt,nt,-0.8,nt,2,10,-1.2,i,nt
CCc1ccc(OCCCC(=O)Nc2ccc(S(=O)(=O)Nc3cc(C)nc(C)n3)cc2)cc1,0.72,3,0.1,-0.5,-5,-21,8.3,i,nt
COC(=O)CCCC(=O)Nc1ccc(Cl)c(Cl)c1,0.66,-3,nt,2.0,nt,nt,nt,nt,10%
Cc1ccc(NC2=NCC(=O)N2c2ccc3c(c2)OCCO3)c(C)c1,0.72,-6,nt,0.2,nt,nt,nt,nt,14%
C[C@H](CO)N1C[C@H](C)[C@H](CN(C)C(=O)NC2CCCCC2)Oc2ncc(C#Cc3cccc(F)c3)cc2C1=O,nt,nt,0.2,nt,-8,-36,29,i,nt
CCOC(=O)[C@]12CCC=C1N(Cc1cccc3ccccc13)C(=O)[C@H](CC(=O)NCCc1ccccc1OC)C2,nt,nt,1.4,0.2,nt,nt,nt,i,nt
Cc1cc(-c2nc(C)c(-c3nnc(SCC(=O)Nc4ccccc4)n3C)s2)no1,0.67,-6,-0.7,-1.7,4,10,1.2,i,-45%
CC(C)CNC(=O)C(=O)NCc1ccccn1,0.67,-3,-0.3,1.4,13,17,-0.4,i,12%
Cc1ccc(/C=C/c2ccc(=O)n(Cc3ccc(F)cc3)n2)cc1,0.66,-2,0.7,1.0,-4,-3,-0.2,nt,-7%
CCOC(=O)c1nnn(-c2nonc2N)c1CN(CC)CC,0.69,-5,nt,1.6,nt,nt,nt,nt,-4%
CNC(=O)c1ccc(Nc2nnc(-c3ccc(O)cc3)c3ccccc23)cc1,0.71,30,2.1,3.4,-16,-8,-9.6,i,-3%
C[C@H]1CN([C@@H](C)CO)S(=O)(=O)c2ccc(-c3ccc(C#N)cc3)cc2O[C@@H]1CN(C)Cc1cccc(F)c1,nt,nt,-0.4,nt,-6,5,1.7,i,nt
Cc1ccccc1CN1CCN(Cc2cc3ccccc3o2)CC1CCO (centres undefined),0.64,-8,1.5,0.9,-12,-11,3.6,i,nt
CSS(=O)(=O)c1cccc2cccnc12,0.67,14,-3.8,-2.3,19,13,-0.6,i,-16%
O=C(C[C@@H]1C[C@H]2c3cc(NC(=O)C4CCOCC4)ccc3O[C@H]2[C@H](CO)O1)NCc1cccnc1,nt,nt,-1.7,nt,4,4,-0.8,i,nt

(next part)
SMILES,Ecoli growth,ALR inh,AF4-AF9 inh,HNF4A DNA FP,rRNA inh HTS,rRNA inh HTS OD600,rRNA inh HTS RFP,FGF22 binding,Vif TR-FRET
CC(C)CNS(=O)(=O)c1ccc(CCC(=O)Nc2ccc3c(c2)OCCO3)cc1,0.68,1,nt,-4.5,-11,-10,1.9,nt,33%
Cc1cccn2cc(-c3ccc(F)cc3)nc12,0.63,96*,nt,5.0,nt,nt,nt,nt,-2%
O=C(Nc1ccc2c(c1)[C@@H]1C[C@@H](CC(=O)N3CCc4ccccc4C3)O[C@H](CO)[C@@H]1O2)Nc1ccccc1F,nt,nt,-6.2,nt,-3,-12,5.6,i,nt
COc1cccc(NC(=O)C2CCCN2S(=O)(=O)c2ccc3c(c2)C(C)(C)C(=O)N3C)c1 (centres undefined),0.74,-7,0.8,0.3,3,6,2.2,i,nt
O=C1CCC(C(=O)Nc2cccc(Br)c2)N1 (centres undefined),0.64,nt,3.2,1.6,9,7,-1.5,i,nt
Cc1cc(C)c(C)c(S(=O)(=O)Nc2ccc(O)cc2)c1C,0.75,58,nt,0.8,nt,nt,nt,nt,6%
C#CCn1c(=NC(=O)c2ccc(Br)s2)sc2cccc(OC)c21,0.77,10,1.5,2.2,-7,3,-1.5,i,-29%
O=C(c1ccc(-n2cncn2)c([N+](=O)[O-])c1)N1CCN(c2cccc(Cl)c2)CC1,0.75,5,4.3,0.5,6,-1,-0.8,i,nt
N#CCS(=O)(=O)c1cccc[n+]1[O-],nt,nt,-0.4,nt,16,16,4.9,i,nt
Cc1cc(C)c2c(CN3CCCCC3C)cc(=O)oc2c1 (centres undefined),0.6,nt,-0.2,-1.8,3,12,2.9,i,nt
O=C1/C(=C/c2cccc(F)c2)CSc2sccc21,0.73,nt,nt,-2.1,nt,nt,nt,nt,9%
COc1ccc2c3c([nH]c2c1)[C@@H](CO)N(C(=O)CN(C)C)CC31CN(CC2CCCC2)C1,nt,nt,19,nt,4,12,3.2,i,nt
COc1ccc(OC)c(-c2cc(C(=O)NC3CCCC3)c3ccccc3n2)c1,0.69,-5,1.6,-0.7,-7,-12,0.2,i,nt
COc1ccc(O)c(C(=O)CC(=O)c2ccccc2C)c1,0.68,8,5.2,1.7,-59,-78,-24,i,8%
Cc1noc(C)c1NC(=O)Nc1ccc2c(c1)CC(=O)N([C@@H](C)CO)C[C@@H](C)[C@@H](CN(C)Cc1ccc(Cl)c(Cl)c1)O2,nt,nt,6.2,nt,-10,-48,8.0,i,nt
O=C(Nc1nc2ccccc2s1)c1cc2c(s1)-c1ccccc1OC2,0.78,-4,-3.6,5.8,-7,-6,4.1,i,-10%
O=C(CCc1ccccc1Cl)N1CCN(S(=O)(=O)c2ccccc2)CC1,0.7,14,-2.6,3.4,2,-10,3.5,i,17%
Cc1ccc(C)c(-n2c(SCC(=O)N3CCCC3)nnc2-c2ccccn2)c1,0.71,-2,nt,2.9,nt,nt,nt,nt,-5%
